Screens (PubChem BioAssay)
Bm FixLJ act – activators of Burkholderia fixLJ two-component system; B. multivorans fixK-promoter GFP reporter, 18 h; active compounds read high; z-score (no concentration beside the values); 0.3% of 29,000 active; AID 1918990;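 active means replicate mean overnight rise in green fluorescent reporter signal, 3 or more SD over negative controls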;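 further: score is relative to vehicle wells of the plate; 300 nL library stock went into each well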
Numbers without * were called inactive; & = joins results of further samples. These rows are one share of the data; count on the stated rates, not on these rows.

A first look:
SMILES | Bm FixLJ act
CCOC(=O)c1ccc(NC(=O)CCc2c(C)nc3cc(-c4ccc(OC)cc4OC)nn3c2C)cc1 | -1.16
O=C(c1cnc(Nc2ccccc2)nc1)N1CCCN(Cc2cccnc2)CC1 | -0.11
COc1cc(-c2onc(N(C)C)c2C(=O)NC2CCNCC2O)ccc1F (stereo not drawn) | 0.34
CCC(=O)c1cccc(-c2ccc(C(=O)N3CCS(=O)(=O)CC3)cc2)c1 | -0.21
COc1cccc(-n2c(SCC(=O)Nc3cc(C)ccc3C)nc3c(oc4ccccc43)c2=O)c1 | -0.62
O=C(Nc1cccc2cccnc12)c1ccccc1[N+](=O)[O-] | -1.96
CCCn1nc(C)cc1NC(=O)CC1CCN(Cc2ccccc2)CC1 | 1.31
COCc1cc(C)nc2sc3c(=O)n(-c4cc(C)ccc4C)nnc3c12 | -1.87
CN(Cc1ccccc1)c1nccc(N2CCNC3CS(=O)(=O)CC32)n1 (stereo not drawn) | 0.49
COc1cc(C(=O)Nc2ccc3nc(C(C)O)[nH]c3c2)nc2ccccc12 (stereo not drawn) | 0.67
Cc1ccc2oc(C(=O)N3CCC(O)(Cn4ccnc4)CC3)cc2c1 | 0.39
CCOc1ccc(NC(=O)Cn2c(=O)n(CCC(=O)NCCc3ccccc3)c(=O)c3ccccc32)cc1 | -0.53
O=C(Nc1ccccc1Cl)N1C[C@H]2COCC[C@@]2(O)[C@@H]2COCC[C@H]21 | -2.89
CCSc1ncc(Cl)c(C(=O)N(Cc2ccccc2Cl)C2CCS(=O)(=O)C2)n1 (stereo not drawn) | -1.03
Cc1ccc(Cl)cc1NC(=O)Cn1c(=O)c2ccccc2n2nncc12 | -0.69

The whole of this part, from the start:
SMILES | Bm FixLJ act
CCOC(=O)c1ccc(NC(=O)CCc2c(C)nc3cc(-c4ccc(OC)cc4OC)nn3c2C)cc1 | -1.16
O=C(c1cnc(Nc2ccccc2)nc1)N1CCCN(Cc2cccnc2)CC1 | -0.11
COc1cc(-c2onc(N(C)C)c2C(=O)NC2CCNCC2O)ccc1F (stereo not drawn) | 0.34
CCC(=O)c1cccc(-c2ccc(C(=O)N3CCS(=O)(=O)CC3)cc2)c1 | -0.21
COc1cccc(-n2c(SCC(=O)Nc3cc(C)ccc3C)nc3c(oc4ccccc43)c2=O)c1 | -0.62
O=C(Nc1cccc2cccnc12)c1ccccc1[N+](=O)[O-] | -1.96
CCCn1nc(C)cc1NC(=O)CC1CCN(Cc2ccccc2)CC1 | 1.31
COCc1cc(C)nc2sc3c(=O)n(-c4cc(C)ccc4C)nnc3c12 | -1.87
CN(Cc1ccccc1)c1nccc(N2CCNC3CS(=O)(=O)CC32)n1 (stereo not drawn) | 0.49
COc1cc(C(=O)Nc2ccc3nc(C(C)O)[nH]c3c2)nc2ccccc12 (stereo not drawn) | 0.67
Cc1ccc2oc(C(=O)N3CCC(O)(Cn4ccnc4)CC3)cc2c1 | 0.39
CCOc1ccc(NC(=O)Cn2c(=O)n(CCC(=O)NCCc3ccccc3)c(=O)c3ccccc32)cc1 | -0.53
O=C(Nc1ccccc1Cl)N1C[C@H]2COCC[C@@]2(O)[C@@H]2COCC[C@H]21 | -2.89
CCSc1ncc(Cl)c(C(=O)N(Cc2ccccc2Cl)C2CCS(=O)(=O)C2)n1 (stereo not drawn) | -1.03
Cc1ccc(Cl)cc1NC(=O)Cn1c(=O)c2ccccc2n2nncc12 | -0.69
O=C(CNS(=O)(=O)c1ccc(Br)s1)N1CCN(c2ccccc2F)CC1 | -0.35
C=CCOc1ccccc1CN1CC(O)C(Cc2cc(C)no2)C1 (stereo not drawn) | 0.03
COc1ccc(S(=O)(=O)Nc2ccc3oc4c(c3c2)CCCC4)cc1 | -0.88
CC(C)c1nc(CCNC(=O)N2CCCN(C(=O)c3ccco3)CC2)no1 | 0.28
COc1ccc(C)cc1-n1c(-c2ccc(C)cc2)cc2c1CC(C)(C)CC2=O | 1.21
CC1=NS(=O)(=O)c2cc(Cl)ccc2N1 | -1.78&-2.48
CCc1nn2c(=O)c(S(=O)(=O)Nc3ccc(Cl)cc3)c(C)nc2s1 | -0.76
CCOc1ccc(CCNC(=O)c2ccc3c(c2)sc2nc(-c4ccc(F)cc4)cn23)cc1OCC | -0.63
Clc1ccc2nc(NCc3ccccc3)c3nncn3c2c1 | -0.13
Cc1cc(C)n(Cc2ccc(NC(=O)N(Cc3noc(C)n3)C(C)C)cc2)n1 | -2.11
New compounds follow.
SMILES | Bm FixLJ act
CCOCCCNC(=O)c1cc2c(=O)n3ccccc3nc2s1 | -0.67
CN1CCN(C2(CNS(=O)(=O)Cc3ccc(Cl)cc3F)CCCC2)CC1 | -0.58
O=S(=O)(c1ccc(Br)cc1)c1nc(-c2ccco2)oc1SCc1ccccc1Cl | -0.28
Cc1ccccc1C(=O)Oc1cc(-c2ccc3c(c2)OCO3)cc(=O)c2c(C)oc(C)c12 | -0.21
Cc1cc(NC(=O)Nc2csc3c2CCCC3)ccc1Br | -1.78
CSc1ccc(CCNC(=O)CCc2c(C)nc3c(c(C)nn3-c3ccccc3)c2C)cc1 | -0.65
O=C(c1cc(-c2ccc(F)cc2)on1)N1CCN(c2ccc(F)cc2)CC1 | -0.16
Cc1cccc(OCC(=O)N(Cc2ccc(C(C)C)cc2)Cc2ccco2)c1C | -0.04
COC(=O)c1c(NC(=O)COc2c(C)ccc(C)c2C)sc2c1CCC(C)C2 (stereo not drawn) | -0.74
CC1=C(C(=O)Nc2ccccc2C)C(c2ccccn2)n2nc(SCc3ccccc3F)nc2N1 (stereo not drawn) | 0.69
CCOC(=O)CSc1nc2cc(OC)c(OC)cc2c2nc(-c3ccccc3)nn12 | -1.22
Nc1ncn([C@@H]2O[C@H](CO)[C@@H](O)[C@H]2O)c(=O)n1 | -2.19
Cc1cc2oc(C(=O)Nc3sc4c(c3C(=O)NCC3CCCO3)CCCC4)cc(=O)c2cc1C (stereo not drawn) | -0.7
Cc1nc(CN(C)C(=O)c2cc(C)sc2NC(=O)C(C)(C)C)no1 | 0.71
CCOC(=O)c1cnc2c(ccc3ccccc32)c1Nc1ccccc1OC | -1.14
Cc1nonc1CN(C)C(=O)CCCc1nc(-c2cccnc2)no1 | -1.03
COCCNc1nc2cc(C(=O)NCCc3cccc(C)n3)ccc2n1C | -1.06
CCCCOc1ccc(C2c3c(-c4ccccc4O)n[nH]c3C(=O)N2Cc2ccncc2)cc1OC (stereo not drawn) | -0.73
CNC(=O)c1ccc(C)c(NC(=O)NC2CCCN(C(=O)c3ccco3)C2)c1 (stereo not drawn) | 0.35
CCCC(C)(COC(N)=O)COC(=O)NC(C)C (stereo not drawn) | -1.83
Cc1noc(C)c1CN1CC2(CCN(c3ccc(Cl)cn3)CC2)CC1=O | -1.56
Cc1ccc(-c2csc(=Nc3ccccc3)n2Cc2ccc3c(c2)OCO3)cc1 | 0.13
Cc1ccc(OCC(=O)N2CCN(Cc3ccc(F)cc3)CC2)cc1 | -0.13
COc1c(Cl)cc(Cl)cc1/C=C(\C#N)c1nc(-c2ccc(Cl)cc2)cs1 | -0.63
CCOc1ccccc1N(C)C(=O)c1nn(-c2ccc(C)cc2)c(=O)c2c1c1ccccc1n2C | 0.59
More structures:
SMILES | Bm FixLJ act
Cc1cccc(CN(C(=O)c2cn[nH]c2-n2cnnn2)C2CCCCC2)c1 | 1.63
COc1cc2c(=O)n(CCC(=O)NCC3CCCO3)c(=O)n(CC(=O)Nc3ccc(F)cc3)c2cc1OC (stereo not drawn) | 0.55
CC1=C(C#N)C(NC(=O)c2cccc(Cl)c2)(C(F)(F)F)C(=O)N1 (stereo not drawn) | -3.04
Cc1cc(C)n(-c2nc3cc(Cl)c(Cl)cc3nc2Nc2c(C)cccc2C)n1 | -1.32
Cc1ccc(S(=O)(=O)c2cc3cc(C(=O)O)ccc3oc2=O)cc1 | 1.07
CCOc1ccc(-c2cc(NC(=O)Nc3ccc(Cl)cc3)c(C(=O)OC)s2)cc1 | -1.48
Cc1cccn2c(=O)c3cc(C(=O)NCc4ccccc4Cl)sc3nc12 | -0.23
COc1ccc(-n2c3c(cc(-c4nc(-c5ccc(Cl)cc5)cs4)c2=O)C(=O)CC(C)(C)C3)cc1Cl | -0.4
CCOCCCNC(=O)c1cn(CC(C)C)c(=O)c2c1c1ccccc1n2C | -1.47
COc1ccc(Cc2ncc3c(n2)CN(C(=O)C(C)NC(C)=O)C3)cc1 (stereo not drawn) | 0.93
Cc1cccc(CCCNC(=O)c2cc3n(n2)CC(O)CNC3=O)c1 (stereo not drawn) | -0.64
CCn1cc(C(=O)N2CCN(c3ccccc3OC)CC2)c2cc(OC)c(OC)cc2c1=O | -0.64
CN1C(=O)OC(C)(C)C1=O | -1.86
c1csc(-c2nc3ccccn3c2Nc2ccc3c(c2)OCCO3)c1 | -0.67
COc1ccc(N2CCN(c3oc(/C=C/c4ccccc4OC)nc3C#N)CC2)cc1 | -0.13
Cc1ccccc1OCC(=O)NC1COCC1Cc1ccncc1 (stereo not drawn) | -0.11
Cc1ccc(C)c(N2CCN(S(=O)(=O)c3cc(Br)cc4c3N(C(=O)C3CC3)CC4)CC2)c1 | 1.92
CC1=C(C(=O)Nc2ccccc2)C(c2ccncc2)n2nc(SCc3ccccc3Cl)nc2N1 (stereo not drawn) | -2.63
CCCOC1CCCN(c2nc(COC)nc3c2cnn3C)C1 (stereo not drawn) | -0.17
CC(=O)c1ccccc1OCC(O)Cn1c(CO)nc2ccccc21 (stereo not drawn) | -0.99
CC(C)CNc1nc(Oc2ccc(OCC(N)=O)nn2)nc(N2CCOCC2)n1 | -1.03
CCOC(=O)c1oc2ccc(S(=O)(=O)n3nc(-c4ccc(C)cc4)cc3N)cc2c1C | -1.65
Fc1ccc(N2CCN(c3ncnc4c3nc3n4CCCC3)CC2)cc1 | -0.02
COc1c(C)c2c(c(O)c1C/C=C(\C)CCC(=O)O)C(=O)OC2 | -0.47&0.77
CC(C)(C(=O)N1CCCN(C(=O)c2ccoc2)CC1)n1cccc1 | -0.24
Next records follow.
SMILES | Bm FixLJ act
Cc1ccc(-n2c3nc(=O)n(C)c(=O)c-3cc3ccccc32)c(C)c1 | -0.19
CCOc1ccc2nc(NC(=O)c3nc(SCc4ccc(C)cc4)ncc3Cl)sc2c1 | 0.68
Cc1ccccc1OCC(=O)Nc1c(C)ccc2nsnc12 | -1.77
Cc1cccc(NC(=O)C2CCCN(S(=O)(=O)c3cnc[nH]3)C2)c1C (stereo not drawn) | -0.4
O=C(CC1=CSC2=NCCCN12)N1CCC2OCc3cnnn3C2C1 (stereo not drawn) | -0.82
COc1cc(NC(=O)c2cncc(F)c2)ccc1NC(=O)CC(C)C | 0.37
COc1cccc(N2CCN(C(=O)c3cc4c(=O)oc5ccc(C)cc5c4s3)CC2)c1 | -0.09
CCCCOc1ccc(C(=O)Nc2ccc(-c3cc4ccccc4oc3=O)cc2)cc1 | 1.25
CC(C)(C)n1ccc(C(=O)N2CCC(c3nccn3Cc3ccncc3)CC2)c1 | -0.53
COc1cc(Cn2c(=O)sc3ccccc32)ccc1OCCC(C)C | 1.42
Cc1cccn2cc(CN3CCN(S(=O)(=O)N4CCOCC4)CC3)nc12 | 0.81
Cc1cc(C(=O)Nc2ccc(NC(=O)CN(C)C)c(C)c2)cc(C)n1 | 0.2
CC(C)N(CC1CC1)C(=O)c1ccc(-n2cnnc2)cc1Cl | 0.37
Cn1ccnc1CNc1cc(C2CCOC2)nc(N2CC(O)C2)n1 (stereo not drawn) | -1.07
CCc1ccc(-n2nc(CO)c(C(=O)NCc3ccccc3OC)n2)cc1 | 0.32
COc1cc(NC(=O)c2noc3c2CCc2ccccc2-3)cc(OC)c1OC | -0.28
COc1cc2ncc(C(=O)c3ccc(C)cc3)c(N3CCCCC3)c2cc1OC | 0.02
Cc1ccc2c(c1)-c1c(cnn1CC(=O)N1CCN(c3ccccc3F)CC1)CO2 | -0.81
Cc1cc(Cl)ccc1OCC(=O)N(Cc1ccco1)Cc1ccccc1F | 1.73
Cc1ccc(NC(=O)CN2C(=O)C(c3ccccc3)=NC2(C)C)cc1C | -2.49
O=C(CCS(=O)(=O)c1cc(Br)cc2c1N(C(=O)C1CC1)CC2)Nc1ccc(C(F)(F)F)cc1 | -0.09
Cc1ccc2c(CC(=O)Nc3c(C(=O)c4ccc(C)c(F)c4)oc4ccccc34)coc2c1 | -0.75
O=C(O)CC1c2ccccc2CCN1C(=O)c1ccc2cccc(F)c2n1 (stereo not drawn) | -0.31
NS(=O)(=O)c1cc(C(=O)O)c(NCc2ccco2)cc1Cl | -1.2&-1.13
CCCc1cnc(C)nc1-c1ccc(OC)c(OC)c1OC | -2.17
(continued)
SMILES | Bm FixLJ act
Cc1ccc(Cl)cc1N1CCN(C(=O)c2cn(CC(C)C)c(=O)c3c2c2ccccc2n3C)CC1 | -1.65
CCOC(=O)C1(C)C=C(Nc2cccc(C(=O)O)c2)C(=O)N1c1ccccc1 (stereo not drawn) | -0.92
COCCC(=O)NC(c1ccc2c(c1)CCO2)C1CC(O)C1 (stereo not drawn) | -0.4
C=CCc1cc(C(=O)N2CC(O)C(Cc3cc(C)[nH]n3)C2)ccc1OC (stereo not drawn) | -0.11
Cc1ccc(S(=O)(=O)c2cnc(SCC(=O)Nc3cccc(Cl)c3)nc2N)cc1C | 0.27
CCC1CCc2nc3sc(C(=O)Nc4ccc(F)c(Cl)c4)c(N)c3cc2C1 (stereo not drawn) | -2.06
Cc1ccc(NC(=O)Cn2c(=O)n(CC(=O)NCCc3ccccc3)c(=O)c3ccccc32)cc1 | 0.22
CCc1nc(C)c(CC(=O)NC2CC=CCC2C(N)=O)c(=O)[nH]1 (stereo not drawn) | -0.97
CCOc1ccc2nc(N3CCCC(C(=O)NCCc4ccc(OC)cc4OC)C3)sc2c1 (stereo not drawn) | -1.62
CCOc1ccc(Nc2cc(C)c(C#N)c3nc4ccccc4n23)cc1 | -0.3
COc1ccc(OC)c(NC(=O)N2CCC3(CC2)Oc2ccccc2C(=O)N3Cc2ccccc2F)c1 | -0.39
COCC(NS(=O)(=O)c1cc(C(C)(C)C)cc(C)c1C)c1ccnn1C (stereo not drawn) | -0.96
Cc1cc(N2CCN(c3ccc(C#N)cn3)CC2)n2nc(C)c(C)c2n1 | -4.5
COc1ccc(OC2CCN(C(=O)c3cccc(-c4ncc[nH]4)c3)CC2)cc1 | -0.13
C=CCN1C[C@@]2(C(=O)O)CN(Cc3cccc(O)c3)CC2C1=O (stereo partly drawn) | 0.51
O=C(NCCSc1c(-c2ccccc2)[nH]c2ccccc12)c1ccc(S(=O)(=O)N2CCOCC2)cc1 | 1.37
